Rango complex inh: qHTS Assay for Inhibitors of Rango (Ran-regulated importin-beta cargo) - Importin beta complex formation. Rango CFP/YFP FRET sensor + importin beta, 45 min. Importin subunit beta-1 (Homo sapiens), Q14974. 0.031% of 340,000 active. Potency, µM (series often up to 92.2 µM), for inactives: top-dose inhibition of complex formation; active = rising FRET ratio curve, often small or poorly fitted; inconclusive = mostly compound fluorescence or quenching in the first reads; inactive = flat curves in all reads;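 note: potency is the fitted concentration of half-maximal effect; 0% = DMSO wells and 100% = buffer wells lacking importin beta; nearly all actives have a fitted effect of over 15% in size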
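FRET biosensor Rango (snurportin 1 IBB between N-terminal EYFP and C-terminal Cerulean), 50 nM in PBS/1 mM DTT/0.02% Tween-20/0.1% BSA, preincubated 5 min RT with compound; 0.125 microM importin beta added, 45 min RT, CFP/YFP FRET ratio read.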
miR-21 FLuc: qHTS Assay for Modulators of miRNAs and/orActivators of miR-21. HeLa miR-21 FLuc reporter, luciferase, 48 h. Potency, µM (highest dose often 38.3 µM), without a hit: at the top dose reporter change, positive = more light. 340,000 tested, under 10 active; active = well fitted rising curve with a large enough effect; inconclusive = small, poorly fitted or top-dose-only effect; inactive = no such curve, though single readings can be large or run the other way;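 note: % of control where 0% means no effect; miR-21 action dims this reporter so a rising signal means less miR-21 action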
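HeLa cells endogenously expressing miR-21, stably carrying CMV-driven firefly luciferase with a downstream miR-21 binding site, 2000 cells/well. Titrations up to approximately 40 uM, 48 hours; luciferase luminescence read.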
GLA inh pH 4.5: qHTS Assay for Inhibitors of Human alpha-Galactosidase at pH 4.5 | Alpha-galactosidase A (Homo sapiens), P06280 | purified enzyme, 4-MU-alpha-Gal fluorescence, pH 4.5 | activity change, negative = inhibition, % at 105 µM | 230,000 tested, under 10 active | AID 1467, 2008; inconclusive = small, poorly fitted or top-dose-only inhibition, or a rising curve; inactive = flat fitted curve, though single readings scatter; no compound was filed as active;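 note: 0% = full activity with enzyme and -100% = basal without enzyme; dose as in the result columns while the protocol names 77 µM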
Rango dissoc inh: qHTS Assay for Inhibitors of RanGTP induced Rango (Ran-regulated importin-beta cargo) - Importin beta complex dissociation; Snurportin-1 (Homo sapiens) + GTP-binding nuclear protein Ran (Homo sapiens) + Importin …; Biochemical FRET Rango-importin beta, RanGTP-induced dissociation; AID 540253, 2011; 0.071% of 340,000 active; Potency, µM (highest dose often 46.1 µM), without a hit: at the top dose activity change, negative = inhibition; active means falling FRET ratio curve, often poorly fitted, with flat reads before Ran was added; inconclusive means other falling curves, or compound fluorescence or quenching; inactive means flat or rising ratio curve;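 note: potency is the fitted concentration of half-maximal effect; % of control where 0% means no effect; nearly all actives have a fitted effect of over 45% in size; -100% = wells without RanGTP and RCC1; the record marks most hits as doubtful in a second field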
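Compounds sat 5 min at room temperature with 0.1 uM Rango biosensor plus 0.25 uM importin beta, then FRET pre-read. RanGTP-RCC1 (0.6 uM Ran, 2mM GTP, 0.2 uM RCC1) added for 45 min, and the CFP/YFP post-read measured blocked complex dissociation.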
* marks the source's active call; other numbers are inactive results; ? = inconclusive; / = not tested or not shown.

SMILES	Rango complex inh	miR-21 FLuc	GLA inh pH 4.5	Rango dissoc inh
COc1ccccc1NS(=O)(=O)c1cccc(C(=O)N/N=C2\CC(=O)CC(C)(C)C2)c1	?	-1%	-12	?
CCOC(=O)c1c(C)[nH]c(C(=O)OCC(=O)NCc2ccc(OC)c(OC)c2)c1C	0.8%	/	/	-13%
CN(C)C(CNC(=O)CSc1nc2ccccc2c(=O)n1Cc1ccco1)c1ccccc1 (stereo unspecified)	-2.6%	/	/	1%
CC(C)[C@@H](N)C(=O)N/N=C/c1ccc2ncccc2c1	1.4%	-12%	-1	?
CCCCC[C@H]1CN(Cc2ccc(OC)cc2)C(=O)[C@@H]1CC(=O)NCc1ccccc1	0.4%	15%	/	22%
COc1ccc(C(=O)NCC2CCCN2S(=O)(=O)c2cccs2)cc1 (stereo unspecified)	0.6%	/	/	-19%
COc1cccc(NC(=O)CN(C)CC(=O)Nc2ccc(C)c([N+](=O)[O-])c2)c1	-3.7%	14%	/	5%
COc1cc(N(C(=O)Cc2cccs2)C(C(=O)NC2CCCCC2)c2ccc(C)cc2)ccc1-n1cnnn1 (stereo unspecified)	-1.7%	-7%	1	3%
OC1CCN(c2c3c(nc4cc(-c5ccc(Cl)cc5)nn24)CCC3)CC1	-0.2%	-23%	-1	8%
CC(SCC(=O)O)c1nc2ccccc2[nH]1 (stereo unspecified)	-1.6%	-2%	6	1%
O=C(CCCCCN1C(=O)[C@@H]2Cc3ccccc3CN2C1=O)Nc1cccc(F)c1	-1.1%	28%	/	-3%
Cc1ccc(/C=C2/C(=O)N=C(N)N2C)s1	-1.8%	-12%	-4	-11%
CCN(CC)S(=O)(=O)c1ccc(C(=O)Nc2cccc(C)c2)cc1	-1.1%	-12%	-2	-18%
Nc1nc2ccc(Cl)cc2o1	-2.9%	/	/	2%
CCNc1ncnc2c1cnn2C	0.6%	-1%	3	0%
CCc1ccccc1NC(=O)Cn1nc(C(F)(F)F)cc1C1CC1	-4.5%	-1%	-1	1%
O=C(COC(=O)Cc1c[nH]c2ccccc12)Nc1cc(S(=O)(=O)N2CCOCC2)ccc1Cl	0.4%	/	/	42%
Cc1nonc1OCCn1nnnc1N	-0.4%	-4%	-1	11%
COc1ccc(CCNC(=O)CCc2cc(OC)c(OC)c(OC)c2)cc1OC	-0.2%	-5%	/	-3%
COc1ccc(C#Cc2c(-c3ccccc3)n(-c3ccccc3)c3ccc(CO)cc23)cc1	?	/	/	1%
COc1ccc(NC(=O)CCS(=O)(=O)c2ccc3nc(C)sc3c2)cc1OC	1.3%	2%	/	-9%
Cc1c(N(C)S(=O)(=O)c2cc(C(=O)Nc3ccccn3)ccc2Cl)c(=O)n(-c2ccccc2)n1C	-3.1%	/	/	0%
COC(C[C@H]1O[C@H]1C(=O)[C@@H](C)OCc1ccccc1)OC	-2.6%	/	/	-5%
CCSc1nc2c(c(=O)n1-c1ccc(F)cc1)SCC2	-6.9%	-9%	-9	-18%
O=C(COc1ccccc1)Nc1cc(C(F)(F)F)ccc1N1CCCC1	1.7%	2%	6	-6%
O=C(O)c1cccc(S(=O)(=O)Nc2ccccc2-c2ccccc2)c1	1.0%	4%	12	19%
N#CC1=C(N)N(c2ccccc2)C2=C(C(=O)CCC2)C1c1ccccc1 (stereo unspecified)	?	-13%	2	?
COc1cc(OC)cc(-c2nc(SCC(=O)Nc3ccccc3F)n[nH]2)c1	-0.5%	-4%	/	1%
COc1ccc(CCNC(=S)Nc2cccc3ccccc23)cc1	-2.1%	2%	-3	-11%
Cc1ccc(S(=O)(=O)Nc2nc(C)c(C(=O)Nc3ccccc3)s2)cc1	-1.3%	-12%	-9	0%
CCCCCC1CC(COc2ccccc2)OC1=O (stereo unspecified)	1.1%	-4%	/	0%
COc1cc2c(cc1OC)C(c1ccccc1)N(C(=O)CSCC(=O)O)CC2 (stereo unspecified)	5.4%	-2%	3	28%
O=C(c1ccc2snnc2c1)N1CCOCC1	-5.2%	-6%	7	-1%
COc1ccc(NC(=O)CSC2CC(=O)N(c3ccc4c(c3)OCCO4)C2=O)cc1 (stereo unspecified)	0.2%	-1%	-4	0%
O=C(NNC(=O)c1ccc2ncccc2c1)c1ccc(Cl)cc1	0.2%	-6%	2	0%
CC(C)C[C@H](NC(=O)c1nc[nH]c1C(=O)N1CCNCC1)C(=O)OCc1ccccc1	-1.9%	/	/	19%
O=S(=O)(c1ccc2oc(=S)[nH]c2c1)N1CCCCC1	2.1%	-1%	-3	-23%
CCOC(=O)C1CCN(C(=O)CCC(=O)NNc2nc3ccccc3c3nc(C)nn23)CC1	-0.4%	0%	/	0%
COc1ccc(-c2cc(C(=O)Nc3cc(C)ccc3O)no2)cc1	-0.5%	-36%	/	-11%
O=C(Nc1cccc(Cl)c1)Nc1sccc1-c1nc2ccccc2s1	-4.9%	-2%	3	1%
COc1cccc(-n2cnc3cccc(N)c32)c1	3.3%	0%	-5	13%
Cc1nn(C)c(C)c1NC(=O)/C(C#N)=C\N(C)C	1.9%	2%	4	-1%
O=C(NCc1ccc(F)cc1)c1noc2c1CCCCC2	-0.1%	-36%	0	-9%

By substructure, those above containing a halogen
SMILES	Rango complex inh	miR-21 FLuc	GLA inh pH 4.5	Rango dissoc inh
OC1CCN(c2c3c(nc4cc(-c5ccc(Cl)cc5)nn24)CCC3)CC1	-0.2%	-23%	-1	8%
O=C(CCCCCN1C(=O)[C@@H]2Cc3ccccc3CN2C1=O)Nc1cccc(F)c1	-1.1%	28%	/	-3%
Nc1nc2ccc(Cl)cc2o1	-2.9%	/	/	2%
CCc1ccccc1NC(=O)Cn1nc(C(F)(F)F)cc1C1CC1	-4.5%	-1%	-1	1%
O=C(COC(=O)Cc1c[nH]c2ccccc12)Nc1cc(S(=O)(=O)N2CCOCC2)ccc1Cl	0.4%	/	/	42%
Cc1c(N(C)S(=O)(=O)c2cc(C(=O)Nc3ccccn3)ccc2Cl)c(=O)n(-c2ccccc2)n1C	-3.1%	/	/	0%
CCSc1nc2c(c(=O)n1-c1ccc(F)cc1)SCC2	-6.9%	-9%	-9	-18%
O=C(COc1ccccc1)Nc1cc(C(F)(F)F)ccc1N1CCCC1	1.7%	2%	6	-6%
COc1cc(OC)cc(-c2nc(SCC(=O)Nc3ccccc3F)n[nH]2)c1	-0.5%	-4%	/	1%
O=C(NNC(=O)c1ccc2ncccc2c1)c1ccc(Cl)cc1	0.2%	-6%	2	0%
O=C(Nc1cccc(Cl)c1)Nc1sccc1-c1nc2ccccc2s1	-4.9%	-2%	3	1%
O=C(NCc1ccc(F)cc1)c1noc2c1CCCCC2	-0.1%	-36%	0	-9%

Two entries picked at random from those above:
SMILES	Rango complex inh	miR-21 FLuc	GLA inh pH 4.5	Rango dissoc inh
O=C(Nc1cccc(Cl)c1)Nc1sccc1-c1nc2ccccc2s1	-4.9%	-2%	3	1%
COc1ccc(-c2cc(C(=O)Nc3cc(C)ccc3O)no2)cc1	-0.5%	-36%	/	-11%

These rows are one share of the data (hit frequency here may not be typical).
